Compound activity from PubChem BioAssay.
GIRK2 activ: GIRK2 channel activation | P48051 | HEK293-GIRK2 thallium flux, Thallos fluorescence | calls only for hits at 25 µM | 0.05% of 63,000 active;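 active means among the strongest 0.2% of first-round signals and kept after retests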;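 further: first round at about 10 µM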
Target sequence (P48051 whole entry, looked up): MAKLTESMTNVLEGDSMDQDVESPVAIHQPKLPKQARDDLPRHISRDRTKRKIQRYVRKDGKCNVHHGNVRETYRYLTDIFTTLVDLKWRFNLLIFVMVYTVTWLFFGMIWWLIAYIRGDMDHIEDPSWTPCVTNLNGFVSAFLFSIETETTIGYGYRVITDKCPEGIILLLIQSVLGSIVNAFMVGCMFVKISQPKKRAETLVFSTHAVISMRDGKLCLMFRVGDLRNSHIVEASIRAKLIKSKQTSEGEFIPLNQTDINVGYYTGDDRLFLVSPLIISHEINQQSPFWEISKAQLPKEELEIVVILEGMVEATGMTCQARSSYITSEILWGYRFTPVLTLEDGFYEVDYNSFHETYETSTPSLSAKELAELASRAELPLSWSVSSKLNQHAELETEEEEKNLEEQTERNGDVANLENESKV
Calls only. An excerpt (hit frequency here may not be typical).

Start of the data: the first three records (preview)
Cn1nc(-c2ccc(F)cc2)cc1C(=O)NCCC1CCCCN1S(=O)(=O)c1cccs1 (stereo not given) was read as GIRK2 activ inactive.
CCOC(=O)N1CCC(NC(=O)c2nc(C)ns2)CC1 was read as GIRK2 activ inactive.
`Cc1ccc(-c2noc(-c3ccc(=O)n(CC(=O)Nc4ccc5c(c4)OCCO5)c3)n2)cc1` gave GIRK2 activ inactive.

Main list, from the start:
Cn1nc(-c2ccc(F)cc2)cc1C(=O)NCCC1CCCCN1S(=O)(=O)c1cccs1 (stereo not given) was read as GIRK2 activ inactive.
CCOC(=O)N1CCC(NC(=O)c2nc(C)ns2)CC1 was read as GIRK2 activ inactive.
`Cc1ccc(-c2noc(-c3ccc(=O)n(CC(=O)Nc4ccc5c(c4)OCCO5)c3)n2)cc1` gave GIRK2 activ inactive.
COc1ccc(-c2coc3c4c(ccc3c2=O)OCN(C(C)C)C4)cc1 was read as GIRK2 activ inactive.
O=C(C1CCN(c2ncnc3c2sc2ncccc23)CC1)N1CCC(Cc2ccccc2)CC1 was read as GIRK2 activ inactive.
Cn1c(=O)[nH]c(=O)c2c1nc(N1CCN(c3ccccc3)CC1)n2Cc1cccc2ccccc12 was read as GIRK2 activ inactive.
`COc1ccc(S(=O)(=O)N2CCCc3cc(NC(=O)CCC4CCCC4)ccc32)cc1` gave GIRK2 activ inactive.
For Cn1c(=O)n(Cc2ccccc2Cl)c(=O)c2c(N3CCN(C(=O)c4ccco4)CC3)ccnc21 the results were GIRK2 activ inactive.
COc1ccc(-c2nnc(SCC(=O)Nc3cccc(C)c3C)n2N)cc1OC was read as GIRK2 activ inactive.
`CS(=O)(=O)c1ccc(Nc2nc(C(=O)NCC3CCCO3)cs2)cc1` (stereo not given) gave GIRK2 activ inactive.
O=C(O)COc1ccc2c(c1)O/C(=C\c1cccc(F)c1)C2=O was read as GIRK2 activ inactive.
Screening Cc1ccc(NC(=O)Cn2c(=O)c(N3CCCCC3)nc3ccccc32)c(Cl)c1 returned GIRK2 activ inactive.
For C=CCOC(=O)c1c2nc3ccccc3nc2n2c1[nH]c(=O)c1ccc(C(=O)OC)cc12 the results were GIRK2 activ inactive.
O=S(=O)(c1cccc(C(F)(F)F)c1)N1CCC(Oc2ccccn2)CC1 was read as GIRK2 activ inactive.
CSCCC(NS(=O)(=O)c1cc(C)ccc1C)C(=O)O (stereo not given) was read as GIRK2 activ inactive.
O=C1CCSCC(C(=O)N2CCn3c2nc2ccccc23)N1 (stereo not given) was read as GIRK2 activ inactive.
For O=C(c1ccccc1C(F)(F)F)N1CCOCC1CO (stereo not given) the results were GIRK2 activ inactive.
For CCN1CCN(CC(=O)Nc2ccc(OC(F)(F)F)cc2)C(=O)C1=O the results were GIRK2 activ inactive.
For O=C(NCCNc1cc(-n2cccc2)ncn1)Nc1ccc2c(c1)OCO2 the results were GIRK2 activ inactive.
Screening COc1ccc(CNC(=O)Nc2ccc(Cl)c(N3CCCS3(=O)=O)c2)cc1OC returned GIRK2 activ inactive.
For Cc1nn(-c2nc(C)c(C)c(=O)[nH]2)c(C)c1CCC(=O)N1CCCC(C)C1 (stereo not given) the results were GIRK2 activ inactive.
Screening Cc1noc(-c2ccc(NC(=O)Cc3cccs3)cc2)n1 returned GIRK2 activ inactive.
For Cc1cc(C(=O)N2CCN(C3=NN=C(c4ccccc4)CS3)CC2)no1 the results were GIRK2 activ inactive.
`CC(C)c1ccc2c(c1)c(SC(C)(C)C)c(CC(C)(C)C(=O)O)n2Cc1ccc(Cl)cc1` gave GIRK2 activ inactive.
`CN(CC(=O)NCCC1=CCCCC1)c1nc2c(F)cccc2s1` gave GIRK2 activ inactive.
For COc1cccc(/C=C2\Oc3cc(OC(=O)c4cccs4)ccc3C2=O)c1OC the results were GIRK2 activ inactive.
For O=C(NCCC(O)c1cccc2ccccc12)NCc1ccccc1 (stereo not given) the results were GIRK2 activ inactive.
For O=C(Nc1nc(C(=O)N2CCCC2)co1)c1cnccn1 the results were GIRK2 activ inactive.
Screening CCOC(=O)Cn1c(=O)c2c(nc3n(-c4ccc(OC)cc4)c(C)cn23)n(C)c1=O returned GIRK2 activ inactive.
Screening CN1CCc2c(sc(NC(=O)c3nc4ccccc4s3)c2-c2nc3ccccc3s2)C1 returned GIRK2 activ inactive.
For O=C(NCCc1c[nH]c2ccccc12)C1CCCN(c2ccc(-c3ccco3)nn2)C1 (stereo not given) the results were GIRK2 activ inactive.
For C=CCn1nnnc1SCC(=O)Nc1ccccc1OC the results were GIRK2 activ inactive.
For CCOc1ccccc1-c1nc(CN(c2ccccc2OC)S(=O)(=O)c2ccc(C)cc2)c(C)o1 the results were GIRK2 activ inactive.
`O=C1CC(c2nc(C3CC3)no2)CN1CCc1ccc(Cl)cc1` (stereo not given) gave GIRK2 activ inactive.
COc1nn(C)cc1C(=O)Nc1nnc(SCC(=O)OCc2ccccc2)s1 was read as GIRK2 activ inactive.
NC(=O)c1ccc(NC(=O)Cn2nc(-c3ccccc3)c3sc(N4CCOCC4)nc3c2=O)cc1 was read as GIRK2 activ inactive.
`O=S(=O)(/C=C/c1ccccc1)NCc1ccsc1` gave GIRK2 activ inactive.
`COC(=O)N1CCC(CNC(=O)c2cccc(Br)c2)CC1` gave GIRK2 activ inactive.
For O=C1Nc2ccc(I)cc2C1=Cc1cc(Br)c(O)c(Br)c1 the results were GIRK2 activ inactive.
For Cc1cc(CCNC(=O)C2c3ccccc3Oc3ccccc32)on1 the results were GIRK2 activ inactive.
`Cc1cn2c3c(=O)n(Cc4ccccc4)c(=O)n(C)c3nc2n1CC(C)C` gave GIRK2 activ inactive.
`CC(C)(C)C(=O)N1CCN(CC(=O)c2cccs2)CC1` gave GIRK2 activ inactive.
`COc1ccc(Br)cc1/C=C1\Oc2cc(OCC(=O)O)ccc2C1=O` gave GIRK2 activ inactive.
`O=C(C(c1ccccc1)c1ccccc1)N1CCN(Cc2ccsc2)CC1` gave GIRK2 activ inactive.
Screening COc1ccc(CCNC(=O)Cn2cnc3c(-c4ccc(F)cc4)csc3c2=O)cc1OC returned GIRK2 activ inactive.
`O=C(/C=C/c1ccc2ncccc2c1)c1ccc2c(c1)OCO2` gave GIRK2 activ inactive.
`Cc1cc(N2C(=O)C(O)=C(C(=O)c3cc4ccccc4o3)C2c2cccc([N+](=O)[O-])c2)no1` (stereo not given) gave GIRK2 activ inactive.
For COc1ccc(OC)c(-c2cc(C(=O)NCCN3CCN(S(C)(=O)=O)CC3)[nH]n2)c1 the results were GIRK2 activ inactive.
For CCOc1ccc(C(=O)NCCc2nc(-c3cccs3)cn2C)cc1OCC the results were GIRK2 activ inactive.
Screening O=C(CCc1csc(NC(=O)c2ccco2)n1)NCc1ccco1 returned GIRK2 activ inactive.
For CN(CC(=O)NCCn1nc(-c2ccco2)ccc1=O)c1nc2c(Cl)cccc2s1 the results were GIRK2 activ inactive.
Screening CCOc1cn(C)c(C(=O)Nc2ccccc2)cc1=O returned GIRK2 activ inactive.
`Cc1cc(C)c(NC(=O)C(=O)NCC2(c3ccc(F)cc3)CC2)c(C)c1` gave GIRK2 activ inactive.
`COc1ccc(S(=O)(=O)Nc2cnc(OC)nc2)c(OC)c1` gave GIRK2 activ inactive.
Screening CCN(CC)c1nc2ccccc2nc1C(C#N)C(=O)NCCc1ccccc1 (stereo not given) returned GIRK2 activ inactive.
For Cc1ccc(N2CCCn3c2nc2c3c(=O)n(CCN3CCOCC3)c(=O)n2C)cc1Cl the results were GIRK2 activ inactive.
CCNC(=O)NCC1CCN(Cc2cc(C)oc2C)CC1 was read as GIRK2 activ inactive.
Screening CCn1c(=O)c2ccccc2n(Cc2nc(-c3ccc(OC(C)C)cc3)no2)c1=O returned GIRK2 activ inactive.
For Cc1noc(-c2ccc(NC(=O)C(C)(C)C)cc2)n1 the results were GIRK2 activ inactive.
NC(=O)CSc1ncc(-c2cccc([N+](=O)[O-])c2)n1-c1ccc(F)cc1 was read as GIRK2 activ inactive.

Quoted at random: 7 records from the list.
For CN(CC(=O)NCCn1nc(-c2ccco2)ccc1=O)c1nc2c(Cl)cccc2s1 the results were GIRK2 activ inactive.
`COc1ccc(S(=O)(=O)Nc2cnc(OC)nc2)c(OC)c1` gave GIRK2 activ inactive.
`O=C(/C=C/c1ccc2ncccc2c1)c1ccc2c(c1)OCO2` gave GIRK2 activ inactive.
Screening CCn1c(=O)c2ccccc2n(Cc2nc(-c3ccc(OC(C)C)cc3)no2)c1=O returned GIRK2 activ inactive.
For Cc1ccc(N2CCCn3c2nc2c3c(=O)n(CCN3CCOCC3)c(=O)n2C)cc1Cl the results were GIRK2 activ inactive.
For COc1ccc(OC)c(-c2cc(C(=O)NCCN3CCN(S(C)(=O)=O)CC3)[nH]n2)c1 the results were GIRK2 activ inactive.
`Cc1cc(C)c(NC(=O)C(=O)NCC2(c3ccc(F)cc3)CC2)c(C)c1` gave GIRK2 activ inactive.

The main list resumes, starting three compounds before the break.
Screening CCn1c(=O)c2ccccc2n(Cc2nc(-c3ccc(OC(C)C)cc3)no2)c1=O returned GIRK2 activ inactive.
For Cc1noc(-c2ccc(NC(=O)C(C)(C)C)cc2)n1 the results were GIRK2 activ inactive.
NC(=O)CSc1ncc(-c2cccc([N+](=O)[O-])c2)n1-c1ccc(F)cc1 was read as GIRK2 activ inactive.
`CC(C)(O)CCc1cccc(C(=O)c2cnn(-c3ccc(F)cc3)c2N)c1` gave GIRK2 activ inactive.
`CC(C)Cc1ccc(C(C)c2nc3ccccc3n2CC(N)=O)cc1` (stereo not given) gave GIRK2 activ inactive.
Screening CCOc1ccc(C(=O)Nc2cc(C(=O)N3CCCC3)cn(C)c2=O)cc1 returned GIRK2 activ inactive.
`CCCn1c(=O)c2c(nc3n2CCN3c2cccc(C)c2C)n(C)c1=O` gave GIRK2 activ inactive.
Screening COc1cccc(CNC(=O)Cn2cnc3c(-c4ccc(F)cc4)cn(C)c3c2=O)c1 returned GIRK2 activ inactive.
CCOCCn1c(N2CCN(CC)CC2)nc2c1c(=O)[nH]c(=O)n2C was read as GIRK2 activ inactive.
`CCn1nc(C)c(CN(C)C(=O)c2nnn(-c3ccccc3OC)c2-c2ccccn2)c1C` gave GIRK2 activ inactive.
For NC(=O)c1ccc(NC(=O)c2ccoc2)cc1 the results were GIRK2 activ inactive.
`CC(C)c1ccc2oc(=O)cc(CN3CCN(Cc4ccccc4)CC3)c2c1` gave GIRK2 activ inactive.
Screening CC(O)(CNS(=O)(=O)Cc1ccc(F)cc1)c1ccc(-c2ccccc2)cc1 (stereo not given) returned GIRK2 activ inactive.
For COc1ccc(-c2c(NC(=O)c3cccs3)n(C)c3ccccc3c2=O)cc1OC the results were GIRK2 activ inactive.
Screening COC(=O)C1C(=O)C2=C(CC1C)NC(C)=C(C(=O)OC1CCCC1)C2c1ccc(C)c([N+](=O)[O-])c1 (stereo not given) returned GIRK2 activ inactive.
For COc1ccc(C(=O)Nc2cnc(-n3ccnc3C)nc2)cc1OC the results were GIRK2 activ inactive.
`N#Cc1nc(-c2ccccc2)oc1N1CCN(C(=O)c2ccco2)CC1` gave GIRK2 activ inactive.
`O=C(NCCc1ccccc1)N1CCN(CC(O)C2CC2)CC1` (stereo not given) gave GIRK2 activ inactive.
O=C(CCn1c(=O)[nH]c2ccccc2c1=O)NCCC1=CCCCC1 was read as GIRK2 activ inactive.
Screening O=C(N1CCCC1)C12CC3CC(C1)CC(c1ccccc1)(C3)C2 returned GIRK2 activ inactive.
Cn1nc(C(=O)N2CCC(Oc3ncccc3Br)CC2)ccc1=O was read as GIRK2 activ inactive.
Screening Cc1cc2nn(CC(=O)Nc3ccccc3F)c(=O)n2c(-c2ccc(F)cc2)n1 returned GIRK2 activ inactive.
CC(C)OCCCNc1nc2ccccc2nc1NS(=O)(=O)c1ccccc1 was read as GIRK2 activ inactive.
COc1ccccc1NC(=O)Cn1cc(-c2nc(-c3ccc(Cl)cc3)no2)ccc1=O was read as GIRK2 activ inactive.
For O=C(Cc1c(F)cccc1Cl)N1CCC(Cn2cccn2)CC1 the results were GIRK2 activ inactive.
O=C(CSc1cc(-n2cccn2)ncn1)NCc1ccc(C(F)(F)F)cc1 was read as GIRK2 activ inactive.
For COc1ccc2c(-c3cc4cc(Br)ccc4oc3=O)cc(=O)oc2c1 the results were GIRK2 activ inactive.
CCCn1c(=O)c2ccc(C(=O)NC3CCCCC3)cc2n2c(=O)n(Cc3ccccc3)nc12 was read as GIRK2 activ inactive.
For COc1ccc(/C=C2\Oc3c(ccc4c3CN(Cc3cc(OC)c(OC)c(OC)c3)CO4)C2=O)cc1 the results were GIRK2 activ inactive.
`O=C(Nc1ccccc1Cl)c1n[nH]n2c1nc(=O)c1cc(F)ccc12` gave GIRK2 activ inactive.
For COc1ccc(N2CC(C)Cn3c2nc2c3c(=O)n(Cc3ccc(F)cc3)c(=O)n2C)cc1 (stereo not given) the results were GIRK2 activ inactive.
`COc1nn(C)cc1C(=O)NC(C)Cc1ccco1` (stereo not given) gave GIRK2 activ inactive.
For CCOC(=O)Cc1csc(NC(=O)Cc2csc(Nc3nc(C)cc(C)n3)n2)n1 the results were GIRK2 activ inactive.
For COc1ccc(-c2ccc(=O)n(CCNS(=O)(=O)c3ccc(C)c(C)c3)n2)cc1 the results were GIRK2 activ inactive.
For Cc1cc(CNC(=O)C(=O)Nc2ccc(C(F)(F)F)cc2)c(C)o1 the results were GIRK2 activ inactive.
`COc1ccccc1-n1nnnc1SCC(=O)Nc1c(C)cccc1C(=O)O` gave GIRK2 activ inactive.
Screening O=C(Cc1cc(=O)[nH]c(SCc2ccc(F)cc2)n1)NCc1ccc2c(c1)OCO2 returned GIRK2 activ inactive.
Screening Cc1nc(-c2cccs2)sc1CNC(=O)COc1ccc2c(c1)OCO2 returned GIRK2 activ inactive.
COc1ccc(CC(=O)NCCc2nc(C)cc(C(F)(F)F)n2)cc1OC was read as GIRK2 activ inactive.
COc1ccc(N2C(=O)C3N=NN(CC(=O)Nc4ccc(OC)c(OC)c4)C3C2=O)cc1Cl (stereo not given) was read as GIRK2 activ inactive.
For O=C(NCC1(CO)CC1)Nc1cccs1 the results were GIRK2 activ inactive.
Screening O=S(=O)(CCOc1ccccc1)Nc1ccc2c(c1)Cc1ccccc1-2 returned GIRK2 activ inactive.
`Cc1cc(-c2nnc(NC(=O)c3cc4ccccc4o3)o2)c(C)o1` gave GIRK2 activ inactive.
For COc1ccc(OC)c(S(=O)(=O)N2C(C)CCCC2C)c1 (stereo not given) the results were GIRK2 activ inactive.
COc1ccc(N2CCN(C(c3cccs3)C(C)NS(=O)(=O)c3ccc(Br)cc3)CC2)cc1 (stereo not given) was read as GIRK2 activ inactive.
